From PubChem BioAssay
RN4220 kill: growth inhibition of S. aureus RN4220, primary screen, OD600. inhibition, % (test concentration not listed). 16 h. 330,000 tested, 0.33% active;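 active means z-score of -3 or lower and OD600 up to 0.18 on both plates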;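 further: plate controls were untreated cells for no effect and reference antibiotic for full effect; stock transfer was 100 nL into about 80 µL; one replicate is shown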
Autofluor counter: compound fluorescence in toxin protease inhibitor counterscreen; fluorescence intensity (no concentration beside the values); 360,000 tested, 3.1% active; compound autofluorescence counterscreen, microsphere flow cytometry; active compounds read high;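 active means at least 3 SD above the mean of all compounds, about 16000 in these data; inconclusive means too few beads counted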;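 further: 100 nL of 1 mM stock went into each well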
PrP UTR inh: inhibition of PrP 5' UTR reporter expression; cell-based PrP 5' UTR mRNA reporter, plate reader; inhibition, % (no concentration beside the values); 340,000 tested, 0.35% active; AID 488862, 2010;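 active means every replicate at 50% or more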;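 further: 0 = median of the neutral control wells; tested in H4 reporter cells; numbers are from one replicate; inactives centre near -14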
ugtP null kill: growth inhibition of ugtP-null S. aureus, primary screen, RN4220 ugtP deletion, OD600; 16 h; some inactives read as strong as hits; growth inhibition, % (no concentration beside the values); 330,000 tested, 0.54% active;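 active means z-score under -3 and OD600 up to 0.15 on both plates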;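 further: plate controls were untreated wells for no effect and antibiotic for full effect; wells of about 80 µL received 100 nL stock; the first replicate is given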
BJeLR lethal: MLPCN primary cell-based screen for lethality selective to Ras in HRASV12 cells; BJeLR (HRASV12) viability, CellTiter-Glo ATP luminescence, 48 h; reference of the scale not given here; inhibition, % (no concentration beside the values); 300,000 tested, 0.17% active;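 active means replicate mean above 50%; inconclusive means above 50% but judged a plate artefact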;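 further: 50 nL library stock added to about 25 µL; numbers are from one replicate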
Mtb hypoxia inh: PubChem AID 1159583; M. tuberculosis hypoxia-regulated fluorescent reporter, fluorescence; fluorescence inhibition, % (no concentration beside the values); 300,000 tested, 0.1% active;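 active means 35 to 45% if threefold the growth effect, above 45% if 1.5-fold the growth effect; inactive means the rest, general growth blockers included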;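 further: wells of about 50 µL received 100 nL stock; 0% = vehicle wells and 100% = reference inhibitor wells; whole bacteria with a GFP reporter of the hypoxia response; strong numbers were not always called active; many hits fall short of the cut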
Mtb hypoxia inh growth: also measured in Mtb hypoxia inh; calls as there; growth inhibition, %; measured here: M. tuberculosis growth (absorbance);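 0% = vehicle and 100% = reference antibiotic; read after six days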
Numbers without * were called inactive; ? = inconclusive; · = no result given.

The opening 6 records, ahead of the listing:
SMILES	RN4220 kill	Autofluor counter	PrP UTR inh	ugtP null kill	BJeLR lethal	Mtb hypoxia inh	Mtb hypoxia inh growth
CCN1CCN(C(=O)C(C)Sc2nnc3nc(C)cc(C)n23)CC1 (configuration not stated)	-1.3	3837	-6	-2	·	-4	-3
c1ccc2c(CN3CCOCC3)c3ccccc3c(CN3CCOCC3)c2c1	5.3	7733	5	0	-13	4	-2
CCOc1cc(C=NNC(=O)c2cccnc2)ccc1OCC(=O)N1CCOCC1	4.9	·	·	16	·	-4	5
Cc1cccc2sc(N3CCN(C(=O)C4COc5ccccc5O4)CC3)nc12 (configuration not stated)	2.0	5701	-14	-4	5	8	2
COc1ccc(C(=O)Oc2ccc(/C=N/Nc3ccc(Cl)c(C(=O)O)c3)cc2OC)cc1	·	4531	-13	·	-4	·	·
COc1ccc2c(C)c(CCC(=O)NC3CC3)c(=O)oc2c1C	2.5	5134	-27	12	2	·	·

This part in full, from the start:
SMILES	RN4220 kill	Autofluor counter	PrP UTR inh	ugtP null kill	BJeLR lethal	Mtb hypoxia inh	Mtb hypoxia inh growth
CCN1CCN(C(=O)C(C)Sc2nnc3nc(C)cc(C)n23)CC1 (configuration not stated)	-1.3	3837	-6	-2	·	-4	-3
c1ccc2c(CN3CCOCC3)c3ccccc3c(CN3CCOCC3)c2c1	5.3	7733	5	0	-13	4	-2
CCOc1cc(C=NNC(=O)c2cccnc2)ccc1OCC(=O)N1CCOCC1	4.9	·	·	16	·	-4	5
Cc1cccc2sc(N3CCN(C(=O)C4COc5ccccc5O4)CC3)nc12 (configuration not stated)	2.0	5701	-14	-4	5	8	2
COc1ccc(C(=O)Oc2ccc(/C=N/Nc3ccc(Cl)c(C(=O)O)c3)cc2OC)cc1	·	4531	-13	·	-4	·	·
COc1ccc2c(C)c(CCC(=O)NC3CC3)c(=O)oc2c1C	2.5	5134	-27	12	2	·	·
CN(C)c1ccc(/C=N/NC(=S)NCc2ccco2)cc1	·	2163	-45	·	3	·	·
CCOC(=O)c1[nH]c2ccc(OC)cc2c1NC(=O)CN1CCC2(CC1)OCCO2	4.2	3078	-14	0	8	5	-2
N#Cc1ccc(C(=O)CSc2n[nH]c(=O)n2-c2cccnc2)cc1	4.3	·	·	3	-12	-6	-7
CCOc1ccc2nc(SCC(=O)NC3CC3)sc2c1	0.2	5742	-10	10	0	6	1
O=C1NC(=O)C(Cc2c[nH]c3ccccc23)N1 (configuration not stated)	2.9	4009	-19	5	-11	-4	13
COc1cccc(NC(=O)COc2ccccc2C(N)=O)c1	3.5	3259	-73	-3	10	6	6
O=c1c(C(c2ccc(O)cc2)c2c(O)nc3n(c2=O)CCS3)c(O)nc2n1CCS2	18	2394	-3	21	-2	10	6
O=C(Nc1cccc2c1CCCC2)c1cc([N+](=O)[O-])cc([N+](=O)[O-])c1	2.3	9199	-19	-6	-8	7	16
COc1cc(/C=C/c2sc3ccccc3[n+]2CCCS(=O)(=O)[O-])ccc1O	1.3	2593	-9	3	-1	-9	5
CCOC(=O)c1oc2cc(O)ccc2c(=O)c1-c1ccc(OC)cc1	8.1	2539	-15	2	29	12	16
COc1cccc(C2c3c(oc4ccccc4c3=O)C(=O)N2CCCN2CCOCC2)c1OC (configuration not stated)	3.1	3728	12	7	·	-4	-2
COc1ccc(C=NN2C(=O)C3C4C=CC(C4)C3C2=O)cc1[N+](=O)[O-] (configuration not stated)	8.6	·	·	5	·	-6	2
Cc1ccc(C)c(NC(=O)c2nnn(Cc3ccccc3)c2N)c1	-1.1	4939	-24	-9	11	9	16
CCC(NC(=S)NCc1ccc(F)cc1)c1ccc(C)cc1 (configuration not stated)	-12	5902	-24	-12	-4	-10	-10
O=C(Nc1nc2ccc(S(=O)(=O)N3CCCC3)cc2s1)c1ccccn1	7.1	4499	-12	-7	2	9	13
CCCn1c(NC(=O)CN2C(=O)NC3(CCCCC3)C2=O)nc2ccccc21	6.0	4498	-14	1	-10	9	-1
CC(C)(C)C(=O)N1CCN(c2ccc(NC(=O)c3ccc([N+](=O)[O-])o3)cc2)CC1	1.8	4094	-22	4	5	·	·
CCCC(=O)Nc1nnc(CCN2CCCCC2)s1	4.2	·	-14	2	6	-3	-1
Cc1ccc(S(=O)(=O)N2CCN(C(C)CC(=O)O)CC2)cc1 (configuration not stated)	9.3	4641	-7	1	0	12	10
O=C(CSc1nnc(C2CC2)n1C1CC1)Nc1cccc(Br)c1	-4.2	3884	-20	-10	·	-1	5
CCN(CC)c1ccc(C=NNc2ccc(C)cc2)c(O)c1	0.4	·	·	26	·	18	7
CCOC(=O)N1CCN(c2nc(-c3ccccc3)c3cc(C)ccc3n2)CC1	0.8	3232	0	8	2	-10	2
CCn1nc(NC(=O)c2ccccc2)c2cc3cccc(C)c3nc21	-1.9	4200	-16	-1	-3	-4	0
CCOC(=O)c1cc(-c2ccccc2)nn1CC1CC(c2cccnc2)=NO1 (configuration not stated)	-0.9	4008	-8	-19	-8	2	1
CCc1ccc(CN2CCC(Oc3ccc(C(=O)N4CCCC4)cc3)CC2)cc1	-1.5	5428	-4	6	-1	9	9
Nc1nnc(CC(=O)N2CCCCC2)s1	2.8	3310	12	4	-3	13	5
COC(=O)c1sccc1N/N=C(\C)c1ccc(F)c(Cl)c1	·	22294*	-27	·	7	·	·
O=C(NCc1ccc2c(c1)OCO2)c1ccc(Cl)nc1	1.0	5102	-15	0	2	·	·
CCOc1ccc(CCNC(=O)CSc2cc(=O)n(C)c3ccccc23)cc1OCC	·	2627	-3	·	-10	·	·
CCOC(=O)C1C2COc3ccc(OC)cc3C2N2C(=O)C(C)NC(=O)[C@@]12C (some centres not stated)	5.4	·	·	0	·	-6	3
COc1cc(OC)c(C(=O)C=Cc2ccc(OC)c(OC)c2)c(OC)c1	0.3	2881	15	-3	·	0	2
O=C(Oc1ccc(C=NNC(=O)c2ccccn2)cc1)c1ccc(Br)cc1	2.8	·	·	5	·	11	6
CCOc1ccc(N(CC(=O)NC2CCCCC2)C(=O)CNC(=O)c2ccco2)cc1	5.6	2472	-9	3	-4	4	11
CN(C)S(=O)(=O)c1ccc(/C(O)=C2/C(=O)C(=O)N(Cc3cccnc3)C2c2ccncc2)cc1 (configuration not stated)	2.2	17829*	-9	-1	2	3	-6

Whole records, looked up by structure:
`CCOC(=O)c1[nH]c2ccc(OC)cc2c1NC(=O)CN1CCC2(CC1)OCCO2` as listed: RN4220 kill: 4.2; Autofluor counter: 3078; PrP UTR inh: -14; ugtP null kill: 0; BJeLR lethal: 8; Mtb hypoxia inh: 5; Mtb hypoxia inh growth: -2
`CCOC(=O)c1oc2cc(O)ccc2c(=O)c1-c1ccc(OC)cc1` as listed: RN4220 kill: 8.1; Autofluor counter: 2539; PrP UTR inh: -15; ugtP null kill: 2; BJeLR lethal: 29; Mtb hypoxia inh: 12; Mtb hypoxia inh growth: 16

(more compounds)
SMILES	RN4220 kill	Autofluor counter	PrP UTR inh	ugtP null kill	BJeLR lethal	Mtb hypoxia inh	Mtb hypoxia inh growth
CCC1Oc2ccc(C)cc2N(CC(=O)NCCN2C(C)CCCC2C)C1=O (configuration not stated)	1.8	9175	-13	10	-2	12	1
CNC(=S)NN=Cc1cn(Cc2c(F)cccc2Cl)c2ccccc12	-5.6	·	·	-29	·	2	8
CCOC(=O)c1[nH]c(C)c(C(=O)NCc2ccccn2)c1C	3.0	21338*	-41	5	8	7	10
CC(C)n1cc(/C=C(\C#N)S(=O)(=O)c2ccccc2)c2ccccc21	4.5	4590	-13	-3	-14	12	9
CCCNc1c(NS(=O)(=O)c2ccc(NC(=O)CC)cc2)c(=O)oc2ccccc12	1.2	5217	-11	9	0	0	1
Cc1ccc(C=NNC(=O)c2cncc(Br)c2)o1	3.2	·	·	4	·	-4	1
CC/C(=C\C1CCCCC1)C(NP(=O)(c1ccccc1)c1ccccc1)c1ccccc1 (configuration not stated)	·	4108	-23	·	7	·	·
O=C(O)CCCC(=O)Nc1ccc(Br)cc1	2.0	23089*	7	-1	-8	-2	5
COc1ccc(C=NNC(=O)Nc2cccc3nsnc23)c(OC)c1	15	·	·	7	·	-3	7
Cc1ccc(Cl)cc1NC(=O)CSc1nnc(C)n1-c1ccccc1	3.7	4187	-28	7	7	12	5
COc1ccc(/C=C2\SC(=O)N(CCNC(=O)C3CSC4(C)CCC(=O)N34)C2=O)cc1 (configuration not stated)	6.1	?	-17	-1	6	-4	-5
CCOC(=O)c1c(-c2ccccc2)csc1NC(=O)CSc1nnnn1C	-6.3	12432	·	-7	-2	2	-2
CS(=O)Cc1cc(Sc2ccccc2)nc(-c2ccncc2)n1 (configuration not stated)	5.8	2930	-25	-4	-10	-2	-1
NC(=O)c1ccc(NC(=O)COC(=O)/C=C/c2ccc3c(c2)OCO3)cc1	1.2	5193	-26	7	-4	10	-3
Cc1cc(C)cc(C(=O)OCC(=O)N2CCCC2)c1	3.7	3536	-10	1	-12	16	5
CCOc1ccccc1NC(=O)CN(C)S(=O)(=O)c1ccc2[nH]c(=O)oc2c1	1.0	5740	-18	-5	0	-4	-6
COc1ccc(/C=c2\sc3nc(-c4ccccc4OC)nn3c2=O)c(OC)c1	·	7220	-5	·	-1	·	·
O=C(CCC(=O)Nc1ccc(F)cc1)NN=Cc1ccc(F)cc1	7.7	·	·	10	·	16	5
N#C/C(=C/c1ccc(N2CCCCC2)o1)c1cccc(F)c1	-1.6	15947	-108	-20	-5	6	13
O=[N+]([O-])c1cc2c(cc1CN1CCN(c3ccccc3)CC1)OCO2	2.6	2771	-7	17	0	8	4
CC(C)(C)OC(=O)NNC(=O)C12CC3CC(CC(C3)C1)C2	4.4	5176	0	3	-3	7	1
COc1ccc(Cl)cc1NS(=O)(=O)c1cccc(C(=O)NCC(c2ccco2)N(C)C)c1 (configuration not stated)	3.4	6264	-26	3	-3	14	5
CCCCNC(=O)c1cc2n(n1)C(C(F)(F)F)CC(c1ccccc1)N2 (configuration not stated)	7.5	10129	·	-9	-3	18	41
Cc1ccc(C=NNC(=O)C(=O)NN=Cc2ccc(C)o2)o1	4.6	·	·	-69	·	15	2
COC(=O)c1ccccc1NC(=O)Nc1ccc(Br)cn1	3.6	3457	-7	12	-10	12	-1
Cc1cc(N2C(=O)C(O)=C(C(=O)c3cc4ccccc4o3)C2c2ccc(Br)cc2)no1 (configuration not stated)	·	4252	-16	·	-3	·	·
CCOC(=O)C1=C(c2ccccc2)NC(=S)NC1C (configuration not stated)	1.6	2639	-10	4	1	1	0
CCOC(=O)C(=O)Nc1nnc(CCc2ccccc2)s1	2.2	4614	-8	4	-6	·	·
O=C(CSc1nnc(-c2ccco2)o1)Nc1cccc([N+](=O)[O-])c1	6.0	5350	8	5	1	2	-2
CN1CCN(c2ccc(Cl)cc2NC(=O)CN2C(=O)NC(C)(c3ccccc3)C2=O)CC1 (configuration not stated)	1.0	?	-16	-3	-5	1	13
CCC(=O)Nc1nc2ccccc2n1Cc1ccccc1	2.1	10742	·	12	8	-5	1
Cc1occc1-c1nnc(SCC(=O)N(C)c2ccccc2)n1C	0.7	?	-9	0	-2	5	-4
O=c1[nH]cnc2scc(-c3ccsc3)c12	-8.1	3368	-3	-4	1	10	5
COc1ccccc1CNC(=O)c1nn(C)c2c1CS(=O)(=O)c1ccccc1-2	3.8	4908	-10	6	3	0	7
CC(C)CCOCc1nc2sc3c(c2c(=O)[nH]1)CCC(C)C3 (configuration not stated)	4.0	9391	-51	-12	-2	3	6
CC1CCCC1/C(=N/O)c1ccccc1 (configuration not stated)	·	3880	-15	·	0	·	·
O=C(/C=C/c1ccccc1)N1CCC(c2ccccc2)C1 (configuration not stated)	9.0	8493	-98	5	-14	25	23
CCCCc1nc2ccccc2c(=O)n1-c1ccc(Cl)cc1[N+](=O)[O-]	3.7	22486*	-10	17	-3	-2	-1
COc1cc(C=N/N=C2/NC(=O)C(Cc3ccc(F)cc3)S2)ccc1O (configuration not stated)	3.2	·	·	14	·	7	0
CCOC(=O)/C(N=Nc1c(Br)cc(Br)cc1Br)=C(\C)O	-5.5	6464	-20	-48	-2	-9	2
O=C(CCS(=O)(=O)Cc1ccccc1)N1CCN(c2ccc([N+](=O)[O-])cc2)CC1	11	4253	80*	5	3	8	2
CC1CCC2(CC1)NC(=O)N(CC(=O)N1CCN(S(=O)(=O)c3ccccc3)CC1)C2=O (configuration not stated)	2.2	4423	-21	6	-2	-5	-7
O=C(O)C1C2CCC(C2)C1C(=O)NCc1ccccn1 (configuration not stated)	2.4	3433	-17	2	-6	8	11
O=C(Nc1ccc(Br)cc1)N1CCc2ccccc2C1	-1.8	?	-49	-8	-1	-2	1
